Screening results from PubChem BioAssay.
KCNQ2 block: KCNQ2 potassium channel inhibitors, primary screen, cell-based, CHO-K1, FluxOR thallium flux, B-score (AID 2156) | 20 min; active compounds read low; only compounds with negative scores are shown here; some inactives read as strong as hits | B-score at 10 µM | 310,000 compounds, 1.1% hits;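 active = fluorescence ratio B-score at most minus 3 library SDs, with starting brightness B-score within 2 library SDs, cut at about -5.5 in these data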
Target sequence (O88943 whole entry, looked up): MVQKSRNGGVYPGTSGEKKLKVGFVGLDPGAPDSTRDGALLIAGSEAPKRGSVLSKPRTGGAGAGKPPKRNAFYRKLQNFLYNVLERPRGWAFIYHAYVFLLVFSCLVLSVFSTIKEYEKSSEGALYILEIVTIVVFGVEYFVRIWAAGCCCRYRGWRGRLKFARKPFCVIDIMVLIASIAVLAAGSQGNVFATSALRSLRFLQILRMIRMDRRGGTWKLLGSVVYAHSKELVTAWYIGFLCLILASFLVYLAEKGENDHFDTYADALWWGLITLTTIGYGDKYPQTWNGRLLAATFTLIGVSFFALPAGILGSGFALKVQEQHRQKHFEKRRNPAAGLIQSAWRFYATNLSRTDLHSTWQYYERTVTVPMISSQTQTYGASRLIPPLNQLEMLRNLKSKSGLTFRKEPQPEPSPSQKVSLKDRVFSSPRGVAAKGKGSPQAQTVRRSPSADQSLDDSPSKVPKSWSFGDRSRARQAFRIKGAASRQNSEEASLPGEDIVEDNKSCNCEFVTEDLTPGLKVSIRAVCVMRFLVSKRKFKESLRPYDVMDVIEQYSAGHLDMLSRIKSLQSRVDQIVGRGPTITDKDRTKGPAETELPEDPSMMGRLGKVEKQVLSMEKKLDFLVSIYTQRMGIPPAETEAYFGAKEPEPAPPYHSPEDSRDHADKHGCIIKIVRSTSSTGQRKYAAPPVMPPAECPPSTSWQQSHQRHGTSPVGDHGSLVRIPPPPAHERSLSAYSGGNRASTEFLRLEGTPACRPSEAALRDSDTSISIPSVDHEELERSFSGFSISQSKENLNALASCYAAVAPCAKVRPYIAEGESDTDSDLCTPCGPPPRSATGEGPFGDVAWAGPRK
KCNQ2 block baseline: recorded beside KCNQ2 block, whose call it bears; B-score; measured here: initial fluorescence intensity artifact check;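 brightness before thallium and not channel activity; 0 = typical well and far values either way flag optical interference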
* marks the source's active call; other numbers are inactive results; i = inactive.

SMILES	KCNQ2 block	KCNQ2 block baseline
Cc1ccc(C)c(N2CCN(S(=O)(=O)c3cccc4cccnc34)CC2)c1	i	2.1
COC(=O)/C=c1/s/c(=C(/C#N)C(=O)NCc2ccccc2)n(-c2ccccc2)c1=O	i	0.76
CN(C)c1cccc(C(=O)NNC(=O)NC2CCCCC2)c1	i	0.52
O=C(CSc1nc2ccccc2o1)N1CCOCC1	i	0.78
O=C(c1ccc2ccccc2c1)N1CCN(S(=O)(=O)/C=C/c2ccccc2)CC1	i	-0.1
CC(C)c1nc(NCCO)c2nnn(Cc3ccccc3)c2n1	i	-0.01
CC1(C)Cc2ccccc2-c2nnc(SCc3ccccc3)n21	i	0.87
COc1ccc(N=C2SC(C(=O)Nc3ccc(OC)cc3)CC(=O)N2CCN2CCOCC2)cc1 (stereo not drawn)	i	0.17
O=C(NCCCn1ccnc1)C1CC(c2cccc(Br)c2)=NO1 (stereo not drawn)	i	4.2
CCCC1=C(C(=O)OCC)C(c2ccc(F)cc2)n2ncnc2N1 (stereo not drawn)	i	-0.23
Cc1cc(C)c2[nH]c(=O)c(CN(CC3CCCO3)S(=O)(=O)c3ccc4c(c3)OCCO4)cc2c1 (stereo not drawn)	i	-0.44
CN(C)c1ccc(N=Nc2ccccc2C(=O)OCC(=O)N(C)c2ccccc2)cc1	i	0.48
COc1ccc(-c2cc(C(F)(F)F)n3nc(C(=O)N4CCN5CCCC5C4)cc3n2)cc1OC (stereo not drawn)	i	-1.7
Cc1[nH]c2ccccc2c1/C=N/NC(=S)NC(C)C	i	-0.25
NC(=O)c1ccccc1-c1nc(-c2ccccc2)no1	i	0.83
Cc1ccccc1NC(=O)CC(C)S(=O)(=O)c1ccc2c(c1)NC(=O)CO2 (stereo not drawn)	i	-0.99
CCOC(=O)c1c(NC(=O)CCCC(=O)O)sc2c1CCC2	i	-2
O=C(CSc1nccn1Cc1ccc(F)cc1)NC1CCCC1	i	-2.4
O=C(c1ccc(Cl)cc1)C1CCN(C(=O)c2ccc(F)cc2)CC1	i	2.1
COc1ccccc1CCNC(=O)C(=O)NCC1OCCN1S(=O)(=O)c1ccc([N+](=O)[O-])cc1 (stereo not drawn)	i	0.53
COc1ccc2c(c1OC)C(=O)OC2N1C(=O)CC[C@H]1C(=O)Nc1ccc2c(c1)OCO2 (stereo partly drawn)	i	-0.96
Clc1ccc(OCCN2CCCCC2)cc1Cl	i	0.83
CC(=O)Nc1cccc(OCCCNC(=O)C2CCC2)c1	i	2
O=C(CSc1nc(=O)n(CCCN2CCOCC2)c2c1CCCC2)Nc1ccc(Cl)cc1	i	0.34
c1ccc(-c2csc(N3CCOCC3)n2)cc1	i	2.5
O=S(=O)(c1ccc(-c2csc(Nc3ccc(Br)cc3)n2)cc1)N1CCCC1	i	0.96
Cc1cc(C)cc(N(C(=O)CNC(=O)c2ccco2)C(C(=O)NC2CCCC2)c2ccncc2)c1 (stereo not drawn)	i	-0.26
CCOC(=O)Cc1csc(NC(=O)c2cccnc2)n1	i	-0.01
CCOc1ccc2ncc(S(=O)(=O)c3ccc(C)cc3)c(N3CCC4(CC3)OCCO4)c2c1	i	1.6
COc1ccc(OC)c(S(=O)(=O)N2CCC(C(=O)NC3CCCC3)CC2)c1	i	-0.99
C(=N\N1CCOCC1)/c1cccs1	i	1
CCN(C(=O)c1ccc(NC(=O)Cc2ccccc2)cc1)c1ccccc1	i	1.1
CC(C)(C)[C@@H]1C=C(C(=O)N2CCOCC2)O[C@H](OCc2ccc(CO)cc2)C1	i	-0.58
CCOC(=O)C1CCCN(C(=S)Nc2ccc(Nc3ccccc3)cc2)C1 (stereo not drawn)	i	-2.1
CCOC(=O)c1nn(-c2cccc(Cl)c2)c2nc(CC(C)C)c(C#N)c(=O)n12	i	-0.14
O=C(NC1CCCC1)c1nc2c(nnn2Cc2ccccc2Cl)c(=O)[nH]1	i	-1.7
CCCCN(Cc1ccco1)S(=O)(=O)c1ccc(-c2ccc(=O)[nH]n2)s1	i	1.8
Cc1ccc(S(=O)(=O)N2CCN(C(=O)CC(C)n3cncn3)CC2)cc1C (stereo not drawn)	i	1.4
Cn1c(=O)oc2cc(S(=O)(=O)N3CCN(C(=O)c4ccco4)CC3)ccc21	i	-2.7
COc1cccc(-c2csc(N3CCN(S(=O)(=O)c4ccc(F)cc4)CC3)n2)c1	i	-0.03
CCSC(=S)Nc1c(C)n(C)n(-c2ccccc2)c1=O	i	0.63
COc1ccc(/C=C/C(=O)Oc2ccc(C=O)cc2OC)cc1	i	-2.6
O=C1CSC(c2c(F)cccc2Cl)N1c1cccc(F)c1 (stereo not drawn)	i	-0.05
Cc1ccc(COC(=O)c2ccc3c(c2)C(=O)N(CCCN2CCOCC2)C3=O)cc1	i	-0.88
COc1ccc(Cl)cc1NC(=O)C/C(C)=N/NC(=O)C(=O)NCc1ccccc1	i	0.42
Cc1ccc(OCC(=O)N(C)CC(=O)Nc2ccc(F)c(F)c2F)cc1	i	0.81
COc1ccc(/C=N\NC(=O)c2ccccc2Cl)cc1COc1c(F)c(F)c(F)c(F)c1F	i	-0.64
COc1cc2c(cc1NC(=O)c1ccncc1)oc1ccccc12	i	-0.47
CCOC(=O)C1=C(c2ccccc2)Nc2ncnn2C1c1ccccn1 (stereo not drawn)	i	1.5
COc1cccc(NC(=S)N2CCC(c3ccc(C)cc3)C2)c1 (stereo not drawn)	i	-1.8
The list continues:
SMILES	KCNQ2 block	KCNQ2 block baseline
O=C(c1cc(=O)c2ccccc2o1)N1CCN(c2ccccc2F)CC1	i	1.3
O=C(c1ccc2c(=O)n(CCc3ccccc3)c(=O)[nH]c2c1)N1CCN(c2ccccc2)CC1	i	0.97
Cc1c(C#N)c(N=CN(C)C)c(C(=O)c2ccccc2)n1-c1ccc(Br)cc1	i	-1.5
O=C(NCc1ccccn1)c1ccc(OC2CCN(Cc3ccccc3)CC2)cc1	i	-1.2
COc1ccc(CCN(Cc2nc(-c3ccccc3)no2)Cc2nc(-c3ccccc3)no2)cc1OC	-6.2*	-0.02*
CCn1cc(Br)c(C(=O)Nc2ccc(C(=O)OC(C)C)cc2)n1	i	1
Cc1cc(Cl)ccc1OCC(=O)NC1CCCC1	i	-0.17
O=C1/C(=C/c2ccncc2)N=C2CCCCCN12	i	-0.11
O=C(NCCc1ccc(Cl)cc1)Nc1cccc(Cl)c1	i	1.9
CCOC(=O)c1cccc(NC(=O)CSc2nc3ccccc3c(=O)n2CC)c1	i	-1.4

Grouped by structure: the compounds so far containing fluorine (9)
SMILES	KCNQ2 block	KCNQ2 block baseline
CCCC1=C(C(=O)OCC)C(c2ccc(F)cc2)n2ncnc2N1 (stereo not drawn)	i	-0.23
COc1ccc(-c2cc(C(F)(F)F)n3nc(C(=O)N4CCN5CCCC5C4)cc3n2)cc1OC (stereo not drawn)	i	-1.7
O=C(CSc1nccn1Cc1ccc(F)cc1)NC1CCCC1	i	-2.4
O=C(c1ccc(Cl)cc1)C1CCN(C(=O)c2ccc(F)cc2)CC1	i	2.1
COc1cccc(-c2csc(N3CCN(S(=O)(=O)c4ccc(F)cc4)CC3)n2)c1	i	-0.03
O=C1CSC(c2c(F)cccc2Cl)N1c1cccc(F)c1 (stereo not drawn)	i	-0.05
Cc1ccc(OCC(=O)N(C)CC(=O)Nc2ccc(F)c(F)c2F)cc1	i	0.81
COc1ccc(/C=N\NC(=O)c2ccccc2Cl)cc1COc1c(F)c(F)c(F)c(F)c1F	i	-0.64
O=C(c1cc(=O)c2ccccc2o1)N1CCN(c2ccccc2F)CC1	i	1.3

(cont.)
SMILES	KCNQ2 block	KCNQ2 block baseline
COc1ccccc1C(=O)CSc1nccn1C	i	-0.28
Cc1ccc(-c2csc(NC(=O)Cc3cccs3)n2)cc1C	i	-1.4
Cc1ccc(NC(=S)NNC(=O)c2nnn(-c3ccccc3)c2C)cc1	i	-0.11
Cc1cccc(-n2cc(C#N)c(=O)[nH]c2=O)n1	i	-0.43
COc1ccc(C(=O)Nc2ccc(C(=O)NCC3CCCO3)cc2)c(OC)c1OC (stereo not drawn)	i	0.01
O=C(NCc1ccc2c(c1)OCO2)C1CCCN(S(=O)(=O)c2cccs2)C1 (stereo not drawn)	i	0.83
CC1CN(C)CCC1OC(=O)c1ccccc1 (stereo not drawn)	i	2.3
COc1ccc(NC(=O)c2sc3nc(Cc4ccccc4)cc(C(F)(F)F)c3c2N)cc1OC	i	-3.2
O=C(CCC1CCCN(C(=O)c2ccoc2)C1)NCc1ccccc1F (stereo not drawn)	i	0.03
Cc1ccc(C(=O)OCC(=O)NCc2ccco2)cc1	i	2.1
O=C(CCCSc1nc2ccccc2[nH]1)Nc1ccccc1	i	0.56
COc1ccc(C2CC(C)(c3ccc(OC)cc3)Nc3ccccc3N2)cc1 (stereo not drawn)	i	-0.96
COc1ccc(-n2nc(C(=O)O)c3ccccc3c2=O)c(OC)c1	i	3.3
CNC(=O)CSc1cn(CC(=O)N(C(C)C)C(C)C)c2ccccc12	i	-2.8
CC(C)n1cc(NC(=O)C2CC(c3cccc(Br)c3)=NO2)cn1 (stereo not drawn)	i	0.78
O=C1NC2(CCCCC2)C(=O)N1Cc1ccc([N+](=O)[O-])cc1	i	-2.5
COc1ccc(NC(=O)Cc2ccc(-c3ccccc3)cc2)cn1	i	-1.3
COc1ccc(OC)c(S(=O)(=O)NC(N)=NCCc2ccccc2)c1	i	-0.56
CS(=O)(=O)N(Cc1ccco1)CC(O)Cn1c2ccccc2c2ccccc21 (stereo not drawn)	-8.2*	0.02*
CCOc1ccccc1N1CCN(S(=O)(=O)c2cccc3nsnc23)CC1	i	-0.23

One compound at a time, from the list above. Order of values: KCNQ2 block | KCNQ2 block baseline
Results for COc1ccc(OC)c(S(=O)(=O)NC(N)=NCCc2ccccc2)c1 : i | -0.56
Results for COc1ccc(C2CC(C)(c3ccc(OC)cc3)Nc3ccccc3N2)cc1 (stereo not drawn) : i | -0.96
Results for CNC(=O)CSc1cn(CC(=O)N(C(C)C)C(C)C)c2ccccc12 : i | -2.8
Results for COc1ccc(-n2nc(C(=O)O)c3ccccc3c2=O)c(OC)c1 : i | 3.3
Results for CC(C)n1cc(NC(=O)C2CC(c3cccc(Br)c3)=NO2)cn1 (stereo not drawn) : i | 0.78

Further structures
SMILES	KCNQ2 block	KCNQ2 block baseline
O=C(CCCN1C(=O)/C(=C/c2cccs2)SC1=S)Nc1cccnc1	i	-1.1
CCn1c2ccccc2c2cc(C3C(C#N)=C(C)NC(C)=C3C#N)ccc21	i	-0.97
Cc1cc(S(=O)(=O)N2CCCC2)ccc1OCC(=O)NC1CCCC1	i	0.12
CCOC(=O)c1c[nH]c(=S)n(-c2ccccc2)c1=O	i	-0.83
Cc1nc2ccccn2c1C(=O)NN=C1C2CC3CC(C2)CC1C3	i	2.2
CCCCOc1ccc(C(=O)NCC(=O)NCc2ccncc2)cc1	i	-0.27
Cc1ccc(S(=O)(=O)N2CCCOC2CNC(=O)C(=O)NCc2cccnc2)cc1 (stereo not drawn)	i	-0.88
CCOc1ccc(S(=O)(=O)NCCC(=O)OC(C)C(=O)N2CCc3ccccc32)cc1 (stereo not drawn)	i	2.2
Cc1ccsc1/C=N/Nc1nc(=O)[nH]nc1C	i	1.2
Cc1cnc(C(=O)OCC(=O)N2c3ccccc3CC2C)cn1 (stereo not drawn)	i	0.17
Cc1ccc(-c2nc(NCC3CCCO3)sc2C)cc1 (stereo not drawn)	i	-0.48
COCCNc1nnc(SCC(=O)Nc2nnc(-c3ccccc3)o2)s1	i	-0.33
CCOC(=O)C1CCN(C(=O)COC(=O)CSc2ccc(C(N)=O)cc2[N+](=O)[O-])CC1	i	-1.2
Cc1ccc2c(Cl)cc(Cl)c(OCC(=O)Nc3ccc(C)c(S(=O)(=O)N(C)C)c3)c2n1	i	0.2
CCCCN1CC(=O)N2[C@H](c3ccc(Cl)cc3)[C@@H]3C(=O)N(CC)C(=O)[C@@H]3[C@]2(Cc2ccccc2)C1=O	i	0.18
COc1ccc(OCC(=O)Nc2cccc(C(C)=O)c2)cc1	i	0.41
O=C(N/N=C/c1cn[nH]c1-c1ccccc1)c1ccco1	i	1.8
Cc1c(NC(=O)CCN2C(=O)c3ccccc3C2=O)c(=O)n(-c2ccccc2)n1C	i	0.05
Cc1ccc(/C=C/C(=O)c2ccc(O)cc2)cc1	i	1
CCCCNC(=S)NNC(=O)c1cc(-c2ccncc2)nc2ccccc12	i	-1.3
CCn1cc(C(=O)NCCCN2CC(C)CC(C)C2)c(=O)c2cc(S(=O)(=O)N(C)C3CCCCC3)ccc21 (stereo not drawn)	i	0.07
Cc1ccc(S(=O)(=O)N(C)CC(=O)N2CCc3ccccc32)cc1	i	1
CCOC(=O)c1cnn(-c2nc(CC)nc3sc4c(c23)CCC4)c1N	i	-0.84
CC(C)(C)C1(O)CC(C(F)(F)F)=NN1C(=O)CCCc1ccccc1 (stereo not drawn)	i	-0.09
COc1ccc(N2CCN(C(CNS(C)(=O)=O)c3ccco3)CC2)cc1 (stereo not drawn)	i	0.07
Cc1cc(-c2csc(N)n2)c(C)n1Cc1ccco1	i	-0.58
COc1cc2[nH]c(=O)n(Cc3ccc(C(=O)NCCCN4CCN(C)CC4)cc3)c(=O)c2cc1OC	i	1.2
CCOc1ncccc1C(=O)OCc1ccc([N+](=O)[O-])cc1	i	2.1
O=C(CN1CCN(Cc2ccc3c(c2)OCO3)CC1)N1CCc2[nH]c3ccccc3c2C1	i	-1.4
CC1CCCN(S(=O)(=O)c2ccc(NC(=O)CN3C(=O)NC(C)(c4ccccc4)C3=O)cc2)C1 (stereo not drawn)	i	-0.01
CCOC(=O)c1cccc(NC(=O)CCS(=O)(=O)c2cccc3nsnc23)c1	i	-1.7
CCOC(=O)CCc1c(C)nc(-n2[nH]c(C)c(CCO)c2=O)[nH]c1=O	i	1.5
CC1(C)CC(NC(=O)c2ccc(Br)o2)CC(C)(C)N1	i	-1.6
COC(=O)c1ccccc1NC(=O)NCc1ccccn1	i	0.5
CCOc1ccc(CCNC(=O)C2CCCN(S(C)(=O)=O)C2)cc1OCC (stereo not drawn)	i	-0.52
CC(C)CC1NC(C(=O)O)Cc2c1[nH]c1ccccc21 (stereo not drawn)	i	0.1
CCCC(=O)N1CCN(c2ccc(NC(=O)c3ccc([N+](=O)[O-])o3)cc2Cl)CC1	i	-2.7
Cc1cc(C(=O)NCc2ccccc2F)c2ccccc2n1	i	-0.69

Only part of the results is shown; count on the stated rates, not on these rows.
